LASV entry inh: inhibitors of Lassa virus binding or cell entry | 300,000 compounds, 1.2% hits | Lassa virus pseudotype entry inhibition, cell reporter; control for the full effect not named in the record | AID 540256 | Potency, µM (top dose mostly 37.9 µM), for the others: at the highest dose activity change, negative = inhibition, actives largely listed as inhibitors; active means well fitted inhibition curve with a large enough effect; inconclusive means small, poorly fitted or top-dose-only effect, or effect the other way; inactive means flat fitted curve, though single readings scatter; tested in HEK293 cells; note: nearly all actives have a fitted effect of over 50% in size; luciferase read-out
Marburg entry inh: Marburg virus entry inhibition; Marburg virus pseudotyped entry inhibition, cell reporter; control for the full effect not named in the record; about a third of the inactives were read at about 46 µM; Potency, µM (highest dose often 37.8 µM), without a hit: at the highest dose activity change, negative = inhibition, usual class: inhibitors; 300,000 compounds, 1.8% hits; active = well fitted inhibition curve with a large enough effect; inconclusive = small, poorly fitted or top-dose-only effect, or effect the other way; inactive = flat fitted curve, though single readings scatter; tested in HEK293 cells; about a fifth of its hits are not listed in these tables; note: luciferase read-out
The depositor's hits bear a star; ? = inconclusive; . = not tested or not shown; & = joins results of further samples; [ ] = another dose, or the depositor's remark. % is set by controls: 0 for no effect and ±100 for the full control effect; potency is the fitted concentration of half-maximal effect. Some of the compounds tested; rates above refer to the full screens.

SMILES | LASV entry inh | Marburg entry inh
CCCC=Cc1ccc(CN2C(CC(C)C)C(=O)N(Cc3cn(CCC4OCCO4)nn3)CCS2(=O)=O)cc1 (stereo not drawn) | ? | .
COC(=O)[C@H](CO)N1C(=O)[C@@H]2[C@@H](C1=O)[C@H]1C=C[C@@H]2C1 | 3.9%[46.1 µM] | .
CC(C)C[C@@H]1COc2cccc(N3CCCC3)c2S(=O)(=O)N1 | 23.3%[46.1 µM] | .
Cc1ccc(CN2[C@@H](C)[C@@H](C)Oc3c(Cl)cccc3[S+]2(=O)[O-])cc1 | ? | .
C[C@H]1[C@H](c2ccccc2)Oc2cc(Br)ccc2S(=O)(=O)N1Cc1cccc(F)c1 | ? | .
CS(=O)(=O)Nc1ccccn1 | ? | .
C=CCCC1CN(Cc2ccc(OC)cc2)S(=O)(=O)c2c(Oc3cc(C)c(C)c(C)c3)cccc2O1 (stereo not drawn) | -16.9%[46.1 µM] | .
CCCCCC(=O)N1C[C@@H](n2cc(COC(=O)c3ccccc3)nn2)[C@H](O)C[C@H]1c1ccccc1 | 3.2%[46.1 µM] | .
CC(C)(C)OC(=O)Nc1ccc(OCc2cn(CC(=O)c3ccc(O)cc3)nn2)cc1 | ? | .
COCOCCn1cc(CN2CCS(=O)(=O)N(Cc3ccc(-c4ccc(F)nc4)cc3)C(C(C)C)C2=O)nn1 (stereo not drawn) | ? | .
CC(C)C[C@H]1COc2c(Cl)cccc2S(=O)(=O)N1 | 0.5%[46.1 µM] | .
CCOC(=O)C1CSCCS(=O)(=O)N1Cc1ccc(F)cc1F (stereo not drawn) | ? | .
COC(=O)Nc1nc2ccc(Oc3ccc(NC(=O)Nc4ccccc4)cc3)cc2[nH]1 | 3.15µM* | .
NCc1ccc(-n2c(-c3nonc3N)nc3cnccc32)cc1 | ? | .
CCCCOCC1CN(CCCC)S(=O)(=O)c2c(Oc3ccc(OC)cc3)cccc2O1 (stereo not drawn) | ? | .
C=CCN1C(=O)N(Cc2ccccc2)c2ccccc2S1(=O)=O | 3.4%[46.1 µM] | .
NC(=O)c1cc(-c2ccncc2)cc(-c2ccccc2)c1N | ? | .
C[C@@H]1N[S+](=O)([O-])c2cc(Cl)ccc2O[C@H]1c1ccccc1 | 2.3%[46.1 µM] | .
O=C(OCc1cn([C@@H]2CN(CC3CCCCC3)[C@@H](c3ccccc3)C[C@@H]2O)nn1)c1ccccc1 | ? | .
O=C(Nc1ccc(Oc2ccc3nc(NC(=O)c4ccccc4)[nH]c3c2)cc1)Nc1cc(C(F)(F)F)ccc1F | 6.28µM* | .
C[C@H]1[C@H](c2ccccc2)Oc2cc(Br)ccc2S(=O)(=O)N1Cc1ccc(Cl)cc1 | ? | .
O=C(OCc1cn([C@@H]2C[C@H](c3ccc(Cl)cc3)N(Cc3cccs3)C[C@@H]2O)nn1)c1ccccc1 | ? | .
CCCCCC(=O)N1C[C@H](O)[C@@H](n2cc(C3CC3)nn2)C[C@H]1c1ccc(OC)cc1 | 5.4%[46.1 µM] | .
CNC(=O)c1cc(-c2ccc(F)cc2)cc(-c2ccc(S(=O)(=O)N3CCCC3)cc2)c1N | 8.88µM* | .
CCCCOCC1CN(CCCC)S(=O)(=O)c2c(Oc3ccc(C)cc3)cccc2O1 (stereo not drawn) | ? | .
Nc1nonc1-c1nc2cnccc2n1C1CC1 | ? | .
O=S1(=O)CCSCCN1Cc1ccccc1F | ? | .
CC(C)C[C@@H]1NC(=O)[C@@H]2CSCCS(=O)(=O)N2C1=O | 8.9%[46.1 µM] | .
C=CCOP1(=O)O[C@H](CC=C)C[C@H](CC=C)O1 (stereo partly drawn) | ? | .
COc1ccc(CN2C[C@H](COCc3ccccc3)Oc3cccc(F)c3S2(=O)=O)cc1 | ? | .
Fc1ccc(-c2ncn(C3CCNCC3)c2-c2ccnc(Oc3ccc(Oc4ccccc4)cc3)n2)cc1 | 12.5µM* | .
Cc1nnc(-c2ccc(C)c(-c3ccc(C(=O)NCc4ccc(Cl)cc4)cc3)c2)o1 | 0.628µM* | .
C[C@H]1[C@@H](c2ccccc2)Oc2c(Cl)cccc2S(=O)(=O)N1Cc1ccc(Cl)cc1 | 4.9%[46.1 µM] | .
CC(=O)c1ccc(OCc2cn(CC(=O)c3ccc(O)cc3)nn2)cc1C | -2.4%[46.1 µM] | .
CC1=C(C(=O)Nc2ccc3n[nH]c(C)c3c2)C(c2ccc(C(F)(F)F)cc2)CC(=O)N1 (stereo not drawn) | ? | .
CC(C)N(C[C@@H]1CSCCS(=O)(=O)N1)C(C)C | ? | .
O=S1(=O)c2cccc(Cl)c2OC[C@H](c2ccccc2)N1Cc1cccc(Cl)c1 | ? | .
C[C@@H]1CCCN1[C@H]1C[S+](=O)([O-])N[C@H]1COCc1ccccc1 | ? | .
COc1ccccc1Nc1ncc(-c2ccccc2)o1 | ? | .
Cc1cc(OCc2cn(CC(=O)c3ccc(O)cc3)nn2)cc(C)c1C | -18.3%[46.1 µM] | .
COc1ccc(CN2C[C@H](COCc3ccccc3)Oc3cccc(N4CCCC4)c3S2(=O)=O)cc1 | ? | .
CN(C)c1cc2c(Nc3ccc4nc(Cc5ccccc5)[nH]c4c3)ncnc2cn1 | ? | .
CC(C)C[C@H]1COc2c(Cl)cccc2S(=O)(=O)N1C | ? | .
CC1(C)CN(c2ccccc2)C(=O)[C@@H]1CC(=O)Nc1ccccc1 | 7.1%[46.1 µM] | .
CC1=C(C(=O)Nc2ccc3[nH]ncc3c2)C(c2ccc(F)cc2)N=C(c2ccc(C(F)(F)F)nc2)N1 (stereo not drawn) | ? | .
CCS(=O)(=O)c1ccc(OC)c(Nc2ncc(-c3cccc(OC)c3)o2)c1 | ? | .
COC(=O)C1CCN(C2CN(Cc3cn(Cc4ccc(C(F)(F)F)cc4)nn3)S(=O)(=O)C2)CC1 (stereo not drawn) | ? | .
CC(C)C[C@H]1COc2cc(NCCO)ccc2S(=O)(=O)N1 | ? | .
O=S1(=O)c2cccc(Cl)c2OC[C@H](c2ccccc2)N1Cc1cccc(F)c1 | ? | .
COc1ccc(CNC(=O)c2ccc(-c3cc(-c4nnc(C)o4)ccc3C)cc2)cc1 | ? | .
c1ccc(Cc2nc3ccc(Nc4ncnc5ccccc45)cc3[nH]2)cc1 | ? | .
Fc1cccc(COc2ccc(Nc3ncnc4cc(-c5ccc[nH]5)sc34)cc2Cl)c1 | ? | .
COc1cc2ncnc(Nc3ccc(C)c(O)c3)c2cc1OC | ? | .
CC(C)C[C@@H]1COc2cccc(N3CCCCC3)c2S(=O)(=O)N1 | 15.0%[46.1 µM] | .
COc1ccc([C@H]2C[C@H](n3cc(-c4ccc(F)cc4)nn3)[C@@H](O)CN2C(=O)c2cccs2)cc1 | ? | .
CC(C)C1C(=O)N(Cc2cn(CCC3OCCCO3)nn2)CCS(=O)(=O)N1Cc1ccc(-c2ccccc2)cc1 (stereo not drawn) | ? | .
CCN1C(=NCc2ccc(OC)cc2)NC(c2ccccc2)C(C(=O)OC)=C1C (stereo not drawn) | . | -22.1%[14.2 µM]
O=C(C1CCCCC1)N1C[C@H](O)[C@H](n2cc(-c3ccc(F)cc3)nn2)C[C@@H]1c1ccc(Cl)cc1 | . | 7.91µM*
O=c1n(-c2ccccc2)c(=O)n2n1CC[C@@H]1C(=NOC[C@@H](O)COCc3ccco3)[C@H]3O[C@H]3[C@@H](O)[C@H]12 | . | -22.9%[14.2 µM]
C=C(C)C(O)/C=C/C=C/c1ccccc1 (stereo not drawn) | . | 1.9%[14.2 µM]

Single records (already shown). Order of values: LASV entry inh | Marburg entry inh
Entry for `CCCC=Cc1ccc(CN2C(CC(C)C)C(=O)N(Cc3cn(CCC4OCCO4)nn3)CCS2(=O)=O)cc1` (stereo not drawn) → ? | .
Entry for `CCCCOCC1CN(CCCC)S(=O)(=O)c2c(Oc3ccc(C)cc3)cccc2O1` (stereo not drawn) → ? | .
Entry for `c1ccc(Cc2nc3ccc(Nc4ncnc5ccccc45)cc3[nH]2)cc1` → ? | .
Entry for `CC(C)C[C@H]1COc2c(Cl)cccc2S(=O)(=O)N1` → 0.5%[46.1 µM] | .
Entry for `Nc1nonc1-c1nc2cnccc2n1C1CC1` → ? | .

(list continues)
SMILES | LASV entry inh | Marburg entry inh
COC(=O)C1=C(C)N(CC2CC2)C(=O)NC1c1ccc(Br)cc1 (stereo not drawn) | . | ?
C#CCCCON=C1C[C@@H](O)[C@H](O)[C@H]2[C@@H]3C(=O)N(c4cccc(Oc5ccccc5)c4)C(=O)[C@@H]3CC[C@@H]12 | . | ?
C#CCCCO/N=C1/C[C@@H](O)[C@@H](O)[C@@H]2[C@@H]3C(=O)N(c4cccc(Oc5ccccc5)c4)C(=O)[C@H]3CC[C@@H]12 | . | ?
COC1=C(CC=C(C)C)C2=C(CCC(=O)O2)CC1 | . | 4.5%&4.5%
CC1=C[S+](=O)([O-])CC1SC1=NC2C=CC=CC2=N1 (stereo not drawn) | . | -15.4%
C=CC[C@@H]1C=C[C@@H](O/N=C(/C)CCC(=O)OC[C@@H]2O[C@H](C#Cc3ccccc3)C=C[C@@H]2Oc2ccc(C)cc2)[C@@H](CO)O1 | . | 29.4%[14.2 µM]
CCCCCCN1C[C@@H](n2cc(-c3ccc(F)cc3)nn2)[C@H](O)C[C@H]1c1ccccc1 | . | 15.8µM*
CCN1C(=NCc2cccc(C(F)(F)F)c2)NC(c2ccccc2)C(C(=O)OC)=C1C (stereo not drawn) | . | ?
C=COC[C@H]1CN2[C@H](c3ccc(Br)cc3)[C@H](C)CC[C@H]2C(=O)O1 | . | -0.9%[14.2 µM]
C/C=C\c1ccccc1OCc1ccc(C(=O)O)o1 | . | 11.4%[46.1 µM]
COc1ccc(NC(=O)C2SC(=S)N=C2N)cc1 (stereo not drawn) | . | 9.0%
C/C(CCN1CCCc2nc(C)c(C)cc21)=N\OC[C@@H](C)[C@H](OCc1ccccc1)C(C)C | . | -23.6%&-23.6%[14.2 µM]
COC(=O)/C=c1\s/c(=C(/C#N)C(=O)N2CCOCC2)n(-c2ccccc2)c1=O | . | -9.0%
COC(=O)[C@@]1(C=C[C@@H](C)[C@H](OC)c2ccccc2Br)[C@@H]2Oc3ccccc3[C@@H]21 | . | 4.0%[14.2 µM]
CCOC(=O)C1NNN2C3CCCCC3C(N3CCN(C4CCCCC4)CC3)NC12 (stereo not drawn) | . | 4.8%[46.1 µM]
CCCN1C(=O)C(C#N)C(C)=CC1C (stereo not drawn) | . | -3.9%
COC(=O)C(C(C)=O)[C@@H](NC(=O)OC(C)(C)C)c1ccccc1 (stereo partly drawn) | . | -7.0%[14.2 µM]
COC(=O)[C@H](C)Sc1nc2c(c(=O)n(C)c(=O)n2C)n1CCC(C)C | . | -14.0%
CC(C)C(=O)N[C@H]1CCCN1C(=O)/C=C\c1ccccc1 | . | -22.4%[14.2 µM]
C#C[C@@H]1C=C[C@H](Oc2ccc(OC)cc2)[C@H](CO)O1 | . | ?
C=CCCN1C(=O)NC(c2ccccc2)C(C(C)=O)=C1C (stereo not drawn) | . | 28.5%[14.2 µM]
O=C1c2c(O)cc(O)cc2O[C@@H](c2ccc(O)c(O)c2)[C@H]1O | . | ?
CNc1ncnc2c1ncn2[C@@H]1O[C@H](CO)[C@H](O)C1O (stereo partly drawn) | . | 4.9%
CC(C)CO/N=C1\C[C@@H](O)[C@@H](O)[C@@H]2[C@@H]3C(=O)N(Cc4ccc5c(c4)OCO5)C(=O)[C@@H]3CC[C@@H]12 | . | ?
CCCCCCCc1cc2ccccc2c2c(C(=O)OC)cc(C(=O)OC)n12 | . | ?
COc1cc([C@H]2C(C(=O)c3cccs3)=C(O)C(=O)N2c2cc(C)on2)ccc1O | . | 11.2%[46.1 µM]
C[C@@H]1CC2=CCCC2[C@]2(O1)C(=O)N(Cc1ccc(F)cc1)c1cccc(Br)c12 (stereo partly drawn) | . | 8.0%[14.2 µM]
CC1(C)OC(=O)C(=CC2=NCCC2)C(=O)O1 | . | 0.5%
Cc1ccccc1COc1ccc(/C(O)=C2\C(=O)C(=O)N(CCCn3ccnc3)[C@H]2c2ccco2)cc1 | . | 20.6%
CC(=O)OC[C@H]1O[C@H](C/C=N/OC[C@@H](O)COCc2ccco2)C=C[C@@H]1OC(C)=O | . | 0.7%[14.2 µM]
CCN1C(=NCc2cccc(C(F)(F)F)c2)NC(c2cccs2)C(C(=O)OC)=C1C (stereo not drawn) | . | ?
CSc1ccc(Oc2cccc3c2S(=O)(=O)N(C2CC2)C[C@@H](COCc2ccccc2)O3)cc1C | . | ?
CN1CC=C2C(C#N)=C(N)C(C#N)(C#N)[C@H](c3ccncc3)[C@H]2C1 | . | -2.5%
COc1cccc([C@@H]2Oc3ccc(Br)cc3C[C@@H]2OC(=O)Nc2cc(OC)c(OC)c(OC)c2)c1 | . | -5.4%[14.2 µM]
CCCCCCCCCC[Si](C)(C)CCC(=O)N[C@@H](Cc1ccc(C)cc1)c1ccccc1 | . | 14.0%
COC(=O)/C=c1\s/c(=C(/C#N)C(=O)NCc2ccco2)n(-c2ccccc2)c1=O | . | -4.1%
CCN(CCNC(=O)[C@H]1C=C(OC)C(=O)C[C@H](c2ccccc2)[C@@H]1C)C(C)=O | . | -18.2%[14.2 µM]
CC(CCN1CCCc2nc(C)c(C)cc21)=NO[C@H](C)CN1CCCc2nc(C)c(C)cc21 | . | -41.3%[14.2 µM]

Given field by field: part of the list above.
CSc1ccc(Oc2cccc3c2S(=O)(=O)N(C2CC2)C[C@@H](COCc2ccccc2)O3)cc1C
  LASV entry inh: . | Marburg entry inh: ?

CN1CC=C2C(C#N)=C(N)C(C#N)(C#N)[C@H](c3ccncc3)[C@H]2C1
  LASV entry inh: . | Marburg entry inh: -2.5%
